# UCH37 inh = inhibitors of human UCH37 deubiquitinase, primary screen, biochemical, Ub-AMC cleavage, fluorescence; purified proteasome/UCH37; inhibition, % (no concentration beside the values); 330,000 tested, 0.33% active; AID 588478, 2011;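 active means mean of two replicates above 20%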;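 further: 0% = compound-free wells with enzyme and 100% = wells lacking proteasome; stock transfer was 100 nL into about 20 µL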
# Target sequence (Q9Y5K5 whole entry, looked up): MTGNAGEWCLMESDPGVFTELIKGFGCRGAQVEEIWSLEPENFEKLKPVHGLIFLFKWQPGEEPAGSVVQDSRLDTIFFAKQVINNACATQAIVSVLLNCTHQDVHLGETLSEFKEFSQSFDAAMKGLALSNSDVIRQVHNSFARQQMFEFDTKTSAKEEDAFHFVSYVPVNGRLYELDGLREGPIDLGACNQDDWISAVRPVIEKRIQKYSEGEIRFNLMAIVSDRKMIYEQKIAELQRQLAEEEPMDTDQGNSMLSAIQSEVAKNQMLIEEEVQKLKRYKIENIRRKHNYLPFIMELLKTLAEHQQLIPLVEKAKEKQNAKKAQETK
#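 Material: human UCH37 enzyme supplied as purified proteasome complex / Amount: 0.15 nM proteasome as dispensed / Buffer or medium: pH 7.4 Tris-HCl (50 mM) with ovalbumin, ATP-MgCl2, DTT / Times: preincubation 30 min, reaction 25 min, room temperature / Technique: AMC fluorescence from Ub-AMC cleavage, excitation 355 nm, emission 460 nm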
# AF4-AF9 inh = inhibitors of AF4 peptide binding to AF9, primary screen, biochemical, AlphaScreen, biotin-AF4 peptide, FLAG-AF9, single point. inhibition, % at 10 µM. 350,000 tested, 0.47% active. AID 651704, 2012;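 active means every replicate reaching a set inhibition limit, whatever the replicate mean, cut at about 25% in these data; inconclusive means mean inhibition reaches that limit but some replicates miss it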;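 further: 0% = plate neutral control median and 100% = total signal loss; the record names both 10 and 1 µM as test concentration; the first replicate is given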
# HNF4A DNA FP = change in binding of human HNF4A to DNA, primary screen, biochemical, fluorescence polarization, FITC-DNA | Hepatocyte nuclear factor 4-alpha (Homo sapiens), P41235 | 1 h | activity change, % at 10 µM | 360,000 tested, 0.3% active | AID 1224865, 2016; in the data active means activity change above about 30%, passing the limit was not always enough;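 further: controls were the assay level and a saturating level of protein; the project sought stronger binding though the title names inhibitors; some compounds called inactive have numbers as strong as hits; positive values seem to mean higher polarization but the record does not say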
# Target sequence (P41235 whole entry, looked up): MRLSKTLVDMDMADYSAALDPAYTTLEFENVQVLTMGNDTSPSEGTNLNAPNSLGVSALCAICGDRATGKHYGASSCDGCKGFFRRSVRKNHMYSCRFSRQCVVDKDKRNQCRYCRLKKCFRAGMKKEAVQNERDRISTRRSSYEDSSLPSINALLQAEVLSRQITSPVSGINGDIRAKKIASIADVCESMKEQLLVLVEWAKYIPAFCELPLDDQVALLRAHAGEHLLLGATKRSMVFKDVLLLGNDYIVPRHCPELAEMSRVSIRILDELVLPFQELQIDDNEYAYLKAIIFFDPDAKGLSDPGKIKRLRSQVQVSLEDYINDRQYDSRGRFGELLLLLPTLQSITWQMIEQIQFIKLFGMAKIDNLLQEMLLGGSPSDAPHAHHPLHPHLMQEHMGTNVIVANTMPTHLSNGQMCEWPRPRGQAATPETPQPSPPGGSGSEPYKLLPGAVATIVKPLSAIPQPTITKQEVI
# FGF22 binding = binders of human FGF22 protein, primary screen, FGF22 synaptogenesis inhibitor project, biophysical, thermal shift, single point | recombinant FGF22 thermal shift, SYPRO orange fluorescence; percent of sucrose octasulfate shift, DMSO zero | calls only at 9.99 µM | 340,000 tested, 1.5% active | AID 651658, 2012;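 active means melting point raised past a set limit in the mean and every replicate; inconclusive means no clear call; three in four hits are not shown here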
# Target sequence (Q9HCT0 whole entry, looked up): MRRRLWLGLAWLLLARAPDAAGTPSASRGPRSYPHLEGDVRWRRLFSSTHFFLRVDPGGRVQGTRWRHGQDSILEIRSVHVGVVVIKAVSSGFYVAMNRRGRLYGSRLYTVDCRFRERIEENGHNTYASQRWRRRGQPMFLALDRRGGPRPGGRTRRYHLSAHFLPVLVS
# Vif A3G = inhibitors of Vif binding to APOBEC3G peptide, primary screen, biochemical, TR-FRET, GST-Vif 1-94, biotin-A3G peptide, dose response retest (AID 1117319). Virion infectivity factor (Human immunodeficiency virus type 1 group M subtype B (isolate …. TR-FRET GST-Vif / biotin-A3G peptide binding; higher % means a stronger effect; test concentration not given here; strong numbers were not always called active. 260,000 tested, 0.57% active. inhibition, %; hits with a dose series show IC50 in µM;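 active means above the screen mean plus three standard deviations and confirmed in dose response; inconclusive means results disagree or hit not tested in dose response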;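 further: Vif residues 1-94 fused to GST binding biotinylated APOBEC3G peptide 110-148; 0% = full assay without inhibitor and 100% = GST in place of GST-Vif; retest series ran down from 100 µM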
# RanGTP-Impb inh = inhibitors of RanGTP-importin-beta interaction, primary screen, biochemical, FRET, CFP-Ran, YFP-importin-beta, homogeneous; inhibition, % (test concentration not listed); Ran GTPase (GTP-bound) - importin-beta complex; cell-free CFP-Ran/YFP-importin-beta FRET ratio; 300,000 tested, 1.1% active; AID 2216, 2009;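 active means most replicates above 15%; inconclusive means exactly half above 15%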;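 further: 0% = DMSO wells and 100% = Ran loaded with GDP instead of GTP; wells of about 40 µL received 100 nL stock; the first replicate is given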
# E coli growth = E. coli growth inhibition, primary screen, OD600; 330,000 tested, 0.21% active; Escherichia coli growth, 23 h; active compounds read low; AID 1053175, 2014; OD600 absorbance (test concentration not listed);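 active means OD600 absorbance below the run mean of sample wells minus 3.6 SD, in any replicate, cut at about 0.56 in these data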;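 further: stock transfer was 300 nL into about 60 µL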
# An asterisk follows results filed as active; i = inactive; ? = inconclusive; / = not tested or not shown; & = joins results of further samples. A portion of the library; rates above refer to the full screens.
molecule	Vif A3G	RanGTP-Impb inh	FGF22 binding	HNF4A DNA FP	AF4-AF9 inh	UCH37 inh	E coli growth
Cn1nnnc1SCC(=O)c1c(N)n(C2CC2)c(=O)[nH]c1=O	-8%	/	i	-4.5	-2.3	2.3	0.7
O=S(=O)(c1ccc(C2CCCCC2)cc1)N1CCN(c2ncccn2)CC1	-2%	1.4	i	0.0	-1.7	1.8	0.68
Cc1ccccc1S(=O)(=O)Cc1ccc(C(=O)NC2CCCC2)o1	1%	-4.6	i	4.7	-1.8	-2.0	0.68
COC(=O)c1nc(NC(=O)c2ccc(Br)cc2)n[nH]1	23%	2.1	/	0.1	/	5.2	0.75
CC1(C)NC(=S)NC1=S	-8%	/	i	2.5	-4.4	0.4	0.66
C/C(N)=C(/C#N)C(=O)CSc1nnc(Nc2ccccc2)s1	/	5.4	i	0.3	0.3	6.8	0.69
COc1ccc(-c2cc(-c3ccccc3)nc3ncnn23)cc1	0%	2.1	i	5.7	-1.6	-201	0.66
COc1ccccc1NC(=O)Nc1nnc(C(C)C)s1	/	-2.1	i	-1.3	2.7	2.0	0.71
Nc1ccc(CCNc2ncnc3c2ncn3[C@@H]2O[C@H](CO)[C@@H](O)[C@H]2O)cc1	/	4.2	i	-0.9	-2.2	-0.7	/
COc1cc(C(=O)NCC2(c3ccccc3)CCCC2)ccc1OC(C)C	-4%	-4.7	i	1.4	-7.9	5.9	0.73
COc1ccc(C)cc1N(C(=O)COc1ccccc1)c1nc2ccccc2s1	/	-0.6	/	1.6	/	1.1	0.7
COc1ccc(CN2C(=O)c3ccccc3C(/C=N/OCc3ccc(Cl)cc3)C2=O)cc1 (stereo not given)	3%	-3.8	/	1.7	/	/	/
CC1(C)CC(=O)C2=C(C1)N(N1CCOCC1)C(N)=C(C#N)C2c1cccs1 (stereo not given)	-11%	-5.2	/	0.0	/	5.8	0.64
O=c1[nH]cnc2c1sc1nc(C(F)F)cc(-c3ccccc3)c12	/	/	i	1.2	2.1	-106	0.69
Cc1ccc(S(=O)(=O)N2CC(C)N(C(=O)N3CCOCC3)C2C)cc1 (stereo not given)	/	0.9	i	0.6	-0.6	4.7	0.68

# Next part
molecule	Vif A3G	RanGTP-Impb inh	FGF22 binding	HNF4A DNA FP	AF4-AF9 inh	UCH37 inh	E coli growth
Cc1ccc(C(=O)Nc2ccc(Nc3ccccc3)cc2)cc1C	/	0.8	i	3.9	5.8	4.0	0.69
COc1ccc(/C(=N/Nc2ncnc3ccccc23)C(=O)O)cc1	5%	1.8	i	1.0	-2.6	/	/
CC(C)CCN(C(=O)c1ccc(N2CCCC2=O)cc1)c1c(N)n(Cc2ccccc2)c(=O)[nH]c1=O	5%	-3.6	i	0.7	-4.4	-0.8	0.67
CC1(C)Nc2ccccc2N(CCC(=O)N2CCOCC2)C1=O	-1%	-1.5	/	1.2	/	4.5	0.73
O=C(N/N=C/c1ccc(OC(=O)c2ccco2)cc1)c1ccncc1	-1%	-0.9	i	1.2	-1.4	/	/
O=C(C1CCCCC1)N1CCN(S(=O)(=O)c2cccc([N+](=O)[O-])c2)CC1	-6%	10.0	i	-1.0	1.2	2.8	0.7
CCOC(=O)C1CCCN(Cc2ccc(OC)cc2OC)C1 (stereo not given)	-1%	4.3	/	3.4	/	-1.2	0.72
CCCCC(C(=O)OCC)C(N)Cc1ccc(F)cc1 (stereo not given)	10%	?	i	4.4	2.0	0.4	0.67
O=C(CN1CCN(C(=O)c2cccs2)CC1)NC1CCCCC1	8%	?	/	0.4	/	2.1	0.72
O=C(COc1ccccc1)Nc1c2c(nn1-c1ccc(F)cc1)CS(=O)C2 (stereo not given)	/	/	i	-0.6	-1.0	/	/
COC(=O)C1CCCCN1C(=O)c1cc(COc2cccc3cccnc23)on1 (stereo not given)	4%	-0.4	i	-1.7	-0.1	-7.9	0.68
CCOC(=O)c1c(NC(=O)/C=C/c2ccc(C)o2)sc(C)c1C	3%	7.0	i	-1.3	2.0	-47	0.69
C/C=C(\C)CN1CCCC(N(C)CCc2ccc(OC)c(OC)c2)C1 (stereo not given)	/	1.6	i	0.9	-2.7	2.8	0.66
COc1ccccc1NC(=O)Nc1cc(NC(=O)Nc2ccccc2OC)c(C)nc1C	/	1.7	/	0.4	/	1.5	0.73
CCCOc1ccc(C(=O)CCCC(=O)c2ccc(OCCC)cc2)cc1	/	3.4	i	4.3	-17	6.2	0.7

# (listing goes on)
molecule	Vif A3G	RanGTP-Impb inh	FGF22 binding	HNF4A DNA FP	AF4-AF9 inh	UCH37 inh	E coli growth
Cn1nc(C(=O)Nc2sc3c(c2C#N)CCCC3)ccc1=O	15%	0.8	/	-2.6	-1.9	9.3	0.68
Cn1ncc2c(N3CCCCC3)nc(NCCCO)nc21	/	5.1	i	1.1	-1.5	1.2	0.7
CC(C)(C)c1cc(-c2n[nH]c(=S)n2-c2ccc(Cl)cc2)n[nH]1	-8%	2.1	i	1.0	-3.1	5.8	0.66
CCN(CC(=O)NCc1cccs1)CC(=O)Nc1cccc(S(N)(=O)=O)c1	/	/	i	-3.0	-4.8	1.6	0.69
O=C(COC(=O)CSc1ccc(F)cc1)NC1CCCCCC1	1%	/	i	-3.6	-5.3	1.8	0.71
Cc1c(Cl)cccc1N=C1NC(=O)CS1	0%	/	i	-7.2	2.7	/	/
COc1ccc(NC(=O)CN2CCC(Cc3ccccc3)CC2)cc1S(=O)(=O)N1CCOCC1	0%	?	/	2.4	/	1.2	0.74
CCOC(=O)Nc1ccc2c(c1)N(C(=O)OCCN(C)C)c1ccccc1CC2	-1%	0.3&-1.6	i	3.7&0.2	3.5&-0.8	7.1&9.8	0.76&0.71
CC1CCCN(C(=O)CNC(=O)c2sc3ccccc3c2Cl)C1 (stereo not given)	-7%	/	i	-2.5	-4.7	3.5	0.66
CCC(C(=O)N1CCOCC1)n1nc(C)c2c(C)n(-c3ccccc3)nc2c1=O (stereo not given)	/	3.3	i	2.6	-0.4	1.7	0.73
CCC(C)NC(=O)Cn1cnc2sc(C)c(S(=O)(=O)N3CCN(c4ccccc4OC)CC3)c2c1=O (stereo not given)	/	1.0	i	-3.1	-1.2	1.1	0.63
CC(C)CCNC(=O)C1CC(c2ccccc2C(F)(F)F)=NO1 (stereo not given)	-7%	-2.2	i	3.9	/	-1.0	0.68
C/C(=N/NS(=O)(=O)c1ccc(Br)cc1)c1c[nH]c2ccccc12	/	5.3	i	-1.9	0.1	/	/
CCOC(=O)c1c(C)n(C)c2ccc(OC(=O)c3ccc(N4C(=O)CCC4=O)cc3)cc12	/	?	i	2.4	2.2	2.4	0.67
COc1ccc(OC)c(NC(=O)Cc2c(C(=O)O)n(C)c3ccccc23)c1	-7%	-3.4	i	0.5	-1.7	4.1	0.65

# More results follow.
molecule	Vif A3G	RanGTP-Impb inh	FGF22 binding	HNF4A DNA FP	AF4-AF9 inh	UCH37 inh	E coli growth
Cc1cc(/C=C2\SC(=O)N(C)C2=O)c(C)n1-c1cccc(C(=O)O)c1	26%	-2.5	i	-9.2	8.7	8.0	0.62
Cc1ccn2c(NC(=O)C(C)(C)Oc3ccc(Cl)cc3)c(-c3cccs3)nc2c1	-2%	3.6	/	-0.5	/	-37	0.68
COc1ccc(C2CC(C(F)(F)F)n3nc(C(=O)N(C)Cc4cn(C)nc4C)c(Cl)c3N2)cc1 (stereo not given)	-2%	1.2	/	-4.7	/	0.5	0.71
CCOC(=O)c1c(-c2ccccc2)c2cc(OC)ccc2n1CCCN(C)C	1%	1.0	i	0.1	21	-80	0.69
O=C(Nc1ccccc1F)c1ccc2c(c1)CCN2S(=O)(=O)c1ccccc1	/	-1.2	i	2.2	-4.2	1.3	0.65
CC(C)=CCn1c2ccc(NC(=O)Nc3cccnc3)cc2c(=O)n1C	/	/	i	0.7	1.1	/	/
COCCCNc1ccn2nc(-c3ccccc3)cc2n1	/	/	i	2.3	-0.8	/	/
COCCNC(=O)c1onc(CSc2cccc(Cl)c2)c1C(=O)O	10%	2.9	i	3.3	-2.2	3.5	0.63
C=CCCCCc1nc2ccccc2c(=O)n1N	-3%	-0.3	/	13	/	-0.1	0.66
CCOCCCNC(=O)CNC(=S)N(Cc1ccccc1F)C1CCCCC1	1%	2.0	/	0.1	/	-1.4	0.72
CC1CCN(C(=O)c2ccc(CSc3nc4ccncc4n3Cc3ccc(F)cc3)cc2)CC1	-11%	14	i	-0.8	7.3	5.1	0.68
O=S(=O)(NC1CCN(S(=O)(=O)c2c(F)cccc2F)C1)c1ccc2c(c1)OCCO2 (stereo not given)	/	/	i	0.0	-1.1	2.7	0.69
Cc1ccc(CNC(=O)Cn2c([N+](=O)[O-])cnc2C)cc1	-5%	-0.2	i	-0.3	-34	5.1	0.67
CNC(=S)N1N=C(c2ccc(C)cc2)CC1c1ccc(OC)c(OC)c1 (stereo not given)	/	1.7	/	3.8	/	0.0	0.68
c1n[nH]c(NCc2ccc3c(c2)OCO3)n1	-7%	-2.6	/	3.0	/	-0.1	0.75

# The list continues:
molecule	Vif A3G	RanGTP-Impb inh	FGF22 binding	HNF4A DNA FP	AF4-AF9 inh	UCH37 inh	E coli growth
CN(CC(=O)Nc1cccc(F)c1)C(=O)c1cccc2ccccc12	-1%	/	i	1.0	0.0	2.2	0.69
Cc1ccc(COCCN2CCN(S(=O)(=O)c3ccccc3)CCC2=O)cc1	/	0.0	i	-2.4	-1.3	-0.4	0.66
Cc1ccc(NC(=S)N2C3CCCC2CC(NC(=O)C2CC2)C3)cc1C (stereo not given)	/	-1.1	i	-1.2	-0.5	5.4	0.66
CN1CCC(=NOc2ccc([N+](=O)[O-])cc2)CC1	14%	0.0	i	4.3	1.3	3.1	0.67
Cc1cc(C)c(C#N)c(SCS(=O)Cc2ccc(Cl)cc2)n1 (stereo not given)	1%	?	i	4.9	3.9	-0.8	0.7
COc1ccc(CCNCc2csc3nc4ccccc4n23)cc1OC	-3%	2.8	/	-2.2	/	-1.0	0.77
Cc1cc2oc(=O)cc(COC(=O)Cn3cnnn3)c2cc1C(C)C	24%	1.1	/	1.5	/	-3.3	0.69
C[C@H]1CN([C@@H](C)CO)C(=O)CCCn2cc(nn2)CO[C@@H]1CN(C)C(=O)Cc1ccccc1	6%	/	i	-1.3	-4.4&-0.6	/	/
CCOc1ccc(S(=O)(=O)N2CC(=O)Nc3ccccc32)cc1C#N	36%	1.0	i	3.1	7.4	4.4	0.69
Cc1ccc(Nc2nc(Cl)nc(NC3CCCCC3)n2)cc1	/	-1.9	i	-0.7	0.0	2.3	0.63
CC(=O)Nc1ccc(S(=O)(=O)NCCC(=O)NC(C)c2cccs2)cc1 (stereo not given)	/	/	i	-5.1	-1.1	2.4	0.64
COc1ccc(/C=C/C(=O)O)cc1S(=O)(=O)N1CCCC1	8%	5.5	i	-1.2	-2.2	2.1	0.63
Cn1c(C=O)c(C#Cc2ccccc2)c2ccccc21	/	/	i	-0.4	3.7	-20	0.69
CC12CCC3C(CCC4CC(O)CCC43C)C1CC(=O)C2 (stereo not given)	/	/	i	2.4	-0.9	/	/
CCC12CN(C(=O)c3ccco3)CC(CC)(CN(C(=O)c3ccco3)C1)C2=O	0%	1.8	i	-4.1	-0.1	1.9	0.68
O=C(C1CC1)N1c2ccccc2Sc2ccccc21	-3%	2.9	i	-2.8	-2.9	0.2	0.67
O=C(Oc1nsnc1N1CCOCC1)N1CCOCC1	19%	-3.7	i	-6.0	0.4	6.8	0.66

# Source: PubChem (several laboratories)
